# From PubChem BioAssay
# Menin-MLL FL inh = menin-MLL binding inhibition, fluorescein peptide. Fluorescence polarization, fluorescein-MLL peptide displacement from menin. FP activity change, % at 61.4 µM. 290,000 tested, under 10 active. AID 1766; inconclusive = falling polarisation curve, or a change in total fluorescence; inactive = total fluorescence flat and polarisation flat or rising; no compound was filed as active; the % refers to the polarisation; negative = inhibition;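 note: % of control where 0% means no effect; inhibitors lower the polarisation; unlabelled MLL peptide was the positive control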
# Sfp PPTase inh = blocks B. subtilis Sfp PPTase activity; Q9F4F7; Biochemical Sfp PPTase activity, qHTS; actives 3.5% (n = 310,000); Potency, µM, inactives show max response, negative = inhibition, most hits filed as inhibitors; active = well fitted inhibition curve with a large enough effect; inconclusive = small, poorly fitted or top-dose-only effect, or another doubt; inactive = no such curve, though single readings can be large or run the other way;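 note: the enzyme is Sfp with the accession as filed and its product quenches rhodamine fluorescence; potency is the fitted concentration of half-maximal effect; 0% = enzyme reaction without inhibitor and -100% = no enzyme wells; top concentration of the series not given in the record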
#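 Reaction rates are the 30-min fluorescence difference (ex 525, em 598 nm) in wells containing 15 nM Sfp, 5 uM rhodamine-CoA and 12.5 uM BHQ-2-YbbR at pH 7.6 with 10 mM MgCl2.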
# * marks the source's active call; other numbers are inactive results; ? = inconclusive; & = joins results of further samples; [ ] = remark or other dose.
SMILES,Menin-MLL FL inh,Sfp PPTase inh
NCCCC[C@H](NC(=O)[C@H](CS)NC(=O)[C@@H](N)Cc1cnc[nH]1)C(=O)N[C@@H](Cc1ccccc1)C(=O)N[C@@H](Cc1c[nH]c2ccccc12)C(=O)N[C@@H](Cc1c[nH]c2ccccc12)C(=O)O,-1.5,14%
CC(C)CO/N=C1/C[C@@H](O)[C@@H](O)[C@@H]2[C@@H]3C(=O)N(Cc4ccccc4)C(=O)[C@H]3CC[C@H]12,1.0[11.7 µM],8%
CO[C@@H](C(C)C)[C@@H](C)[C@@H]1OC(=O)C[C@@H]1O,0.8[11.7 µM],-4%
CCCn1c(C)nc2c(NCCOC)nc(C)nc21,-3.8,22%
CN(CCOC(=O)CN1C(=O)c2ccccc2C1=O)C1=NS(=O)(=O)c2ccccc21,0.3,18%
CC(C)c1ccc(S(=O)(=O)N2CCN(CC(=O)c3ccc(O)c(O)c3)CC2)cc1,2.3,22µM*
Clc1ccc2nc(-c3ccccc3)[nH]c2c1,?,-4%
CCCCNc1nc(C)nc2c1nc(C)n2CCC,-6.4,29%
COC(=O)c1c(NC(=O)CN2CCN(S(=O)(=O)c3ccccc3)CC2)sc2c1CCC(C)C2 (stereo not given),8.1,-9%
COc1ccc(-n2c(=S)[nH]c3cc(C(=O)Nc4ccccc4OC)ccc3c2=O)cc1,5.7,18%
COc1ccc2c(c1)O[C@@H](c1ccc3c(c1)OCO3)[C@H](OC(=O)NCc1ccco1)C2=O,-3.3,1%
Cc1ccc(NC(=O)O[C@@H]2C(=O)c3cc(Br)ccc3O[C@H]2c2ccc3c(c2)OCO3)cc1Br,19,-5%
COC(=O)CC1C(C)(C)C(O)C2CC3=C4CC(O)OC(c5ccoc5)[C@]4(C)CCC3[C@@]1(C)C2=O (stereo not given in full),-3.4,-6%
Cc1ccc(NC(=S)Nc2ccc(S(=O)(=O)Nc3ncccn3)cc2)cc1Cl,1.2,2%
CC[C@H](C)[C@H](NC(=O)[C@H](Cc1ccc(O)cc1)NC(=O)CNC(=O)[C@@H]1CCCN1C(=O)[C@H](CC(=O)O)NC(=O)[C@@H](N)CS)C(=O)NCC(=O)N[C@@H](CO)C(=O)N[C@@H](CCCN=C(N)N)C(N)=O,-6.6,-2%
CCN(CC)CCCC(C)n1c(-c2ccccc2)nc2c(N(CCOC)CCOC)nc(C)nc21 (stereo not given),3.7,22%
CCC(C)NC(=O)c1cc(Sc2nnc(C)s2)nc2ccccc12 (stereo not given),-0.4,18%
COc1ccc(OC)c(NC(=O)C2C3CCC(O3)C2C(=O)O)c1 (stereo not given),3.7,?
CC[C@H](C)[C@H](NC(=O)[C@H](CC(=O)O)NC(=O)[C@H](CC(C)C)NC(=O)[C@H](NC(C)=O)C(c1ccccc1)c1ccccc1)C(=O)N[C@H](C(=O)N[C@@H](Cc1c[nH]c2ccccc12)C(=O)O)[C@@H](C)CC,-1.2,4%
O=c1nc2ccccc2c2n1C[C@H](CN1CCN(c3ccccc3)CC1)N2,?,13%
C[C@H]1Cc2c(COc3ccccc3)nc3c(c2CO1)CN(C(=O)c1ccco1)CC3,1.6[11.7 µM],7%
O=C(CSc1nnc(-c2ccccc2)o1)n1c2c(c3ccccc31)CCCC2,-1.0,6%
Cc1sc2nc(CN3CCC(C)CC3)nc(Cl)c2c1C,-1.3,20%
Nc1ccc(S(=O)(=O)Nc2ccccc2)cc1,-7.7,-11%
CC(=O)OC[C@@H]1O[C@H](CCO/N=C\[C@@H](C)[C@H](OCc2ccccc2)C(C)C)C=C[C@@H]1OC(C)=O,-0.4[11.7 µM],5%
C=C1C=CS(=O)(=O)N(C(CC(C)C)C(=O)OC)C1 (stereo not given),-2.5,?
COc1cc([N+](=O)[O-])ccc1NC(=O)CSc1nc2ccccc2n1-c1ccccc1,-0.2,-8%
CCOCC(=O)Nc1cc(C(=O)Nc2ccc(F)cc2)ccc1Cl,-0.6,0%
Oc1ccc(N=C/C=C/c2ccc(Br)cc2)cc1-c1nc2ccccc2s1,3.4,-15%
CCC1CN2CCC1CC2[C@@H](NC(=S)Nc1cc(C(F)(F)F)cc(C(F)(F)F)c1)c1cccc2ccc(OC)cc12 (stereo not given in full),-0.3,?
Cc1cc2c(nc1C)CCCCN2C[C@H](C)O/N=C\[C@@H](C)[C@H](OCc1ccccc1)C(C)C,-0.1[11.7 µM],8%
COC(=O)c1cccc(C23CC4(C2)[C@H](CN(C)[C@@H]4c2ccccc2)C3c2ccc(Cl)nc2)c1 (stereo not given in full),3.3,18%
COc1cc(OC)c(C2CC(=O)N3CN(c4ccccc4C)CSC3=C2C#N)cc1OC (stereo not given),-0.8,4µM*
O=C(c1cc2ccccc2c(=O)o1)N1CCCC1,2.1,3%
CC1CCC2C(=O)N3C(CCC(C)[C@@H]3c3ccc(Br)cc3)C(=O)N2C1c1ccc(Br)cc1 (stereo not given in full),2.2[11.7 µM],-6%
COc1ccc(C2CC(O)(c3ccccc3)Oc3c(C)ccc(C(C)C)c32)cc1 (stereo not given),-2.2,27%
COC(=O)c1nnc(C(=O)N(C)Cc2ccccc2)c2[nH]c3ccccc3c12,-12,5%
O=[N+]([O-])c1ccc(Cl)c(/C=N/n2c(-c3cccnc3)n[nH]c2=S)c1,4.7,8%
Cc1c2c(nc3nc4ccccc4n13)CCCC2=O,-0.5,14%
N[C@@H](Cc1ccc(O)c(I)c1)C(=O)O,2.1&4.4,-6%

# 4 compounds drawn at random from those above, as already listed:
SMILES,Menin-MLL FL inh,Sfp PPTase inh
CC(C)c1ccc(S(=O)(=O)N2CCN(CC(=O)c3ccc(O)c(O)c3)CC2)cc1,2.3,22µM*
O=[N+]([O-])c1ccc(Cl)c(/C=N/n2c(-c3cccnc3)n[nH]c2=S)c1,4.7,8%
C[C@H]1Cc2c(COc3ccccc3)nc3c(c2CO1)CN(C(=O)c1ccco1)CC3,1.6[11.7 µM],7%
COc1ccc2c(c1)O[C@@H](c1ccc3c(c1)OCO3)[C@H](OC(=O)NCc1ccco1)C2=O,-3.3,1%

# Continuation:
SMILES,Menin-MLL FL inh,Sfp PPTase inh
CC1CC2C(C(O)C[C@]3(C)C2CC[C@]3(O)C(=O)CO)[C@]2(C)C=CC(=O)C=C12 (stereo not given in full),-1.0,2%
COC(=O)[C@H](Cc1ccccc1)NC(=O)[C@]1(C)C[C@H]1[C@H](NC(=O)OCc1ccccc1)c1ccccc1,-2.3,9%
O=C(O)C(Cc1ccccc1)N1C(=O)/C(=C/c2cccc3ccccc23)SC1=S (stereo not given),2.6,-19%
COc1ccc(O[C@H]2C=C[C@@H](c3ccccc3)O[C@@H]2CO/N=C(\C)CCN2CCCc3nc(C)c(C)cc32)cc1,1.7[11.7 µM],-15%
Brc1ccc(-c2nnc3ccc(Nc4ccccc4)nn23)cc1,2.4,3%
COc1ccc(NC(=O)c2ccc(-c3ccc(-c4noc(C)n4)cc3C)cc2)cc1OCCN(C)C,?,79µM*
CC(=O)OCC1OC(C#Cc2ccc(C)cc2C)C=CC1OC(C)=O (stereo not given),-2.1[11.7 µM],4%
COC(=O)c1sccc1-c1ccc(C(N)=O)o1,5.4,11%
NS(=O)(=O)c1cc([C@@]2(O)NC(=O)c3ccccc32)ccc1Cl,-0.2[24.8 µM],15%
CCCCC(=O)Nc1sc2c(c1-c1nc3ccccc3s1)CCN(C(C)=O)C2,3.9,?
COc1ccc(-c2c(C)n([O-])c3c([n+]2=O)CCCC3)cc1OC,-3.5,7%
O=C(Oc1ccccc1C(=O)O)c1ccccc1O,-1.2,9%
O=C(O)c1cc(N=Nc2ccc(-c3ccc(N=Nc4ccc(O)c(C(=O)O)c4)cc3)cc2)ccc1O,?,?
CC(=O)C1(C)CC2(CC(C)(C)OC2=O)C(=O)O1 (stereo not given),2.4,11%
CCCCc1nn(-c2ccccc2C(F)(F)F)c(=O)n1Cc1ccc(-c2ccccc2S(=O)(=O)NC(=O)c2sccc2C)cc1,3.6,13%
CCOc1ccc2nc(NC3=NCN(Cc4ccco4)CN3)nc(C)c2c1,0.5,9%
CCN1CCN(CCNC(=O)C2CCN(Cc3nc(-c4ccc(Cl)cc4)oc3C)CC2)CC1,1.7,19%
CCCCCCCC/C=C\CCCCCCCC(=O)NCC(=O)O,-5.2,9%
O=C(O)c1cccnc1SC1CC(=O)N(c2cccc3ccccc23)C1=O (stereo not given),1.2,16%
COC(=O)C1OC(=O)C2O[C@@]23[C@]2(C)C(OC(C)=O)CC4C(C)(C)C(=O)CC[C@]4(C)C2CC[C@@]13C (stereo not given in full),-3.5,10%

# Four entries from above in a different format:
O=C(O)c1cc(N=Nc2ccc(-c3ccc(N=Nc4ccc(O)c(C(=O)O)c4)cc3)cc2)ccc1O
  Menin-MLL FL inh: ?; Sfp PPTase inh: ?
CC1CC2C(C(O)C[C@]3(C)C2CC[C@]3(O)C(=O)CO)[C@]2(C)C=CC(=O)C=C12 (stereo not given in full)
  Menin-MLL FL inh: -1.0; Sfp PPTase inh: 2%
COc1ccc(O[C@H]2C=C[C@@H](c3ccccc3)O[C@@H]2CO/N=C(\C)CCN2CCCc3nc(C)c(C)cc32)cc1
  Menin-MLL FL inh: 1.7[11.7 µM]; Sfp PPTase inh: -15%
COC(=O)c1sccc1-c1ccc(C(N)=O)o1
  Menin-MLL FL inh: 5.4; Sfp PPTase inh: 11%

# Ordered by value in Sfp PPTase inh (smallest number first): 3 from the list above
SMILES,Sfp PPTase inh
Brc1ccc(-c2nnc3ccc(Nc4ccccc4)nn23)cc1,3%
CC(=O)OCC1OC(C#Cc2ccc(C)cc2C)C=CC1OC(C)=O (stereo not given),4%
COC(=O)[C@H](Cc1ccccc1)NC(=O)[C@]1(C)C[C@H]1[C@H](NC(=O)OCc1ccccc1)c1ccccc1,9%

# Continued:
SMILES,Menin-MLL FL inh,Sfp PPTase inh
O=C(CSc1nnc2c3ccccc3c3ccccc3c2n1)Nc1ccccc1,1.7,9%
CO[C@@H]1COC(=O)C/C=C\[C@@H](C)[C@H](OC)COC(=O)[C@@H](C)COC(=O)C/C=C\[C@H]1C,0.2[11.7 µM],-15%
Cc1cc2nc(NC3=NCN(CCN4CCOCC4)CN3)nc(C)c2cc1C,-0.2,13%
CCN(CC)CCCCn1c(-c2ccccc2)nc2c(NC3CCCCC3)nc(C)nc21,2.2,13%
C/C(=C(/CCOC(=O)C(C)C)SS/C(CCOC(=O)C(C)C)=C(\C)N(C=O)Cc1cnc(C)nc1N)N(C=O)Cc1cnc(C)nc1N,-6.5,-17%
COc1ccc(Cl)cc1-c1ccc(C(=O)O)o1,-1.1[94.6 µM],112µM*
COC(=O)C1C(=O)C(C(=O)/C=C/c2ccco2)C(=O)CC1(C)C (stereo not given),?,56µM*
CCCc1c(OCCCOc2ccc(OCC(=O)O)cc2)ccc(CC=O)c1O,?,-11%
Cn1c(=O)[nH]c(=O)c2c1nc(N1CCCC1)n2CCSc1nc2ccccc2[nH]1,-0.9,15%
COCCN1CN=C(Nc2nc(C)c3ccc(C)cc3n2)NC1,5.9,-1%
CC(=O)OC[C@H]1O[C@@H](O/N=C(\C)CCN2CCCCc3nc(C)c(C)cc32)[C@H](OC(C)=O)[C@@H](OC(C)=O)[C@@H]1OC(C)=O,-2.3,8%
O=S(=O)(O)c1ccc2c(c1)-c1nc-2nc2[nH]c(nc3nc(nc4[nH]c(n1)c1ccc(S(=O)(=O)O)cc41)-c1ccc(S(=O)(=O)O)cc1-3)c1ccc(S(=O)(=O)O)cc21,?,?
COc1cc(/C=C/C(=O)c2ccc(O)cc2O)ccc1O,?,-30%
Cc1cc(O)cc(O)c1C(=O)OC1(C)C(=O)C=C2C=C(/C=C/C(=O)O)OC=C2C1=O (stereo not given),?,?
Cc1cc2c(c(=O)n1Cc1ccccc1)C1O[C@](CCCCN3C(=O)c4ccccc4C3=O)(Cc3cc(C#N)ccc31)O2,2.5[11.7 µM],7%
Cc1ccc(NC(=O)c2snc3c(=O)[nH]cnc23)cc1C,0.5,8%
COc1ccc(Oc2coc3cc(OCC(=O)N4CCCCC4)ccc3c2=O)cc1,13,-10%
Cc1ccc(C)c2[nH]c(=O)c(CCNC(=O)C(C)C)cc12,1.0,5%
N#Cc1ccc(C23CC4(C2)[C@H](CN(Cc2cccnc2)[C@@H]4c2ccccc2)C3c2ccc(C(F)(F)F)cc2)cc1 (stereo not given in full),1.3,-1%
Cc1ccc2sc(-c3ccc(NC(=O)CCN4C(=O)c5ccccc5C4=O)cc3)nc2c1,0.3,11%
C=C(Nc1ccc(OCC)cc1)Nc1ccc(OCC)cc1,-2.0&-2.9,18%&13%
N#CCCn1cnc2c1NC=NC2Cl (stereo not given),?,18%
CCOC(=O)CCN1C(=O)[C@H]2[C@H]3[C@H](O)[C@H](O)C/C(=N/NC(=O)OCC)[C@H]3CC[C@@H]2C1=O,3.1[11.7 µM],13%
O=C(Nc1ccc2ccccc2c1)[C@H]1C[C@@H]1[C@H](NP(=O)(c1ccccc1)c1ccccc1)c1ccccc1,-4.8,17%
O=C(NCc1nc2ccccc2[nH]1)[C@H]1C[C@@H]1[C@H](NP(=O)(c1ccccc1)c1ccccc1)c1ccccc1,-0.1,0%
Cc1[nH]c(C)c(C(=O)O)c1CNC1CCCCC1C (stereo not given),-1.8,17%
CC[C@H](C)[C@H](NC(=O)[C@H](N)Cc1ccc(O)cc1)C(=O)N[C@@H](CC(N)=O)C(=O)N[C@@H](CC(C)C)C(=O)N[C@H](C(=O)N[C@@H](C(=O)N[C@@H](CCCN=C(N)N)C(=O)N[C@@H](CCC(N)=O)C(=O)N[C@@H](CCCN=C(N)N)C(=O)N[C@H](Cc1ccc(O)cc1)C(N)=O)[C@@H](C)O)[C@@H](C)CC,-9.2,-2%

# Only part of the results is shown; count on the stated rates, not on these rows.
